# N370S GC mod = inhibits or activates N370S mutant glucocerebrosidase; P04062; N370S GC spleen homogenate, 4MU-glucoside fluorescence; Potency, µM (titrated, usually from 59.4 µM), for inactives: at the highest dose activity change, negative = inhibition, actives largely listed as inhibitors; 330,000 compounds, 0.092% hits; AID 2101;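 also: 0% = full enzyme activity and -100% = no enzyme basal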
# KAT2A inh = GCN5L2 (KAT2A) acetyltransferase inhibition | Q92830 | GCN5L2 HAT assay, ThioGlo1 CoA-SH fluorescence | Potency, µM (top dose mostly 58.9 µM), for inactives: at the highest dose activity change, negative = inhibition, most hits filed as inhibitors | 390,000 compounds, 0.21% hits | AID 504327
# Target sequence (Q92830 whole entry, looked up): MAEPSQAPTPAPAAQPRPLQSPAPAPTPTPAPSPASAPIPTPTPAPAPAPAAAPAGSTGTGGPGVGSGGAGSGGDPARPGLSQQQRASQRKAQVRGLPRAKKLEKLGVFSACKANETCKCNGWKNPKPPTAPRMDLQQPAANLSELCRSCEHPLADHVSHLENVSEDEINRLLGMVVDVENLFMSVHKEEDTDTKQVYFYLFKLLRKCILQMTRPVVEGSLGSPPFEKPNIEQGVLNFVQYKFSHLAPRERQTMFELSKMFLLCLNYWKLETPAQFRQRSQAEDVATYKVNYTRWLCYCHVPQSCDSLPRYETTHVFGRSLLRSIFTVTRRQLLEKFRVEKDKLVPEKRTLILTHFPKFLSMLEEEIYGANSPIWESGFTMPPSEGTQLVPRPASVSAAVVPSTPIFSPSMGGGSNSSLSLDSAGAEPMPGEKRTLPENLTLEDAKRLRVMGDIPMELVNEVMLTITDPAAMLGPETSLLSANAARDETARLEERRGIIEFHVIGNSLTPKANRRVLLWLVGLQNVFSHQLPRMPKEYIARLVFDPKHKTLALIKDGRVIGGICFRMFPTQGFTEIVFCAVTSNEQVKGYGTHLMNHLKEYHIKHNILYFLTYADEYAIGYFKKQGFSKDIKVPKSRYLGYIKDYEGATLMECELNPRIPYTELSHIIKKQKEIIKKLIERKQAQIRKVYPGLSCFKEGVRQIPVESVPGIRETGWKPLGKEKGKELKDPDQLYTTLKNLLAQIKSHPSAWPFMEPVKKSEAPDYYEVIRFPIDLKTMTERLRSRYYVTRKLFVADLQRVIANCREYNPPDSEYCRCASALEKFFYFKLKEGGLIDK
#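 Titration-based screen in which CoA formation is detected via maleimide probe ThioGlo1 (50uM) turning fluorescent on thiol reaction; substrates H3(1-25) 75uM and acetyl-CoA 70uM, GCN5L2 20nM, 20 min incubation at room temperature.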
# The depositor's hits bear a star; ? = inconclusive; / = no result given; & = joins results of further samples; [ ] = dose if it differs, or a comment. Calls follow the shape of the dose curve; as a rule, active = well fitted curve in the direction sought with a large enough effect; inconclusive = small, poorly fitted or top-dose-only effect, or another doubt; inactive = no such curve, though single readings can be large; an effect the other way counts as inactive or inconclusive. Unless noted, % is scaled to controls: 0 for no effect and ±100 for the full control effect; potency is read from the fitted curve at half-maximal effect. An excerpt; most or all hits stand in other tables.
no.	Molecule	N370S GC mod	KAT2A inh
1	CC1(C)SC2C(NC(=O)C(N)c3ccccc3)C(=O)N2C1C(=O)O (stereo not given)	9%	12%
2	CC(C)(C)OC(=O)N1CCC(CNC(=O)c2ccc(F)cc2)CC1	-3%	-9%
3	CSc1ccc(S(=O)(=O)NCc2ccc(C)cc2)cc1	-4%	-10%
4	Cn1c(-c2ccccc2)c(C(=O)CC#N)c2ccccc21	19%	-7%
5	CC(C)CCNC(=O)C(=O)NCc1ccccc1	13%	-14%
6	Cc1cccc(C(=O)OCC(=O)NN2C(=O)NC3(CCC(C)CC3)C2=O)c1O (stereo not given)	-18%	1%
7	Cc1cc(C)n(-c2ccc(C(=O)Nc3cccnc3)cc2)n1	-4%	-13%
8	O=C(c1cc(Cl)ccc1F)N1CCCC(Nc2ccc3c(c2)OCCO3)C1 (stereo not given)	-1%	-14%
9	COc1ccc(OC)c(S(=O)(=O)N(C)CC(=O)N2CCc3ccccc3C2)c1	3%	/
10	O=C(N/N=C/c1ccc2c(c1)OCO2)C(=O)Nc1ccccc1	4%	-7%
11	Cc1ccc(CNC(=O)CSc2nc(C)cc(C)c2C#N)cc1	4%[2.35 µM]	-2%
12	C=CCOc1ccc(CNn2c(C)n[nH]c2=S)cc1OC	-9%	-7%
13	CC(C)Oc1ccccc1C1(c2ccccc2)NC(=O)NC1=O (stereo not given)	3%	-5%
14	COc1ccc(C(CNC(=O)c2cccc(S(=O)(=O)N(C)c3ccccc3)c2)N2CCCC2)cc1 (stereo not given)	/	-1%
15	CCCNS(=O)(=O)c1ccc(OCC(=O)N2CCCC2)cc1	-3%	3%
16	O=C(Nc1cccnc1Cl)c1cc(-c2ccc(F)cc2)on1	0%	-5%
17	CN(C)c1ccc(C(=O)NCc2ccc3c(c2)OCO3)cc1	-11%	-9%
18	Clc1ccc(SCCn2cncn2)cc1	-5%	-17%
19	O=C(COC(=O)c1ccc(Cl)nc1)NCCC1=CCCCC1	-13%	-6%
20	CCOC(=O)C(=O)Nc1ccc(S(=O)(=O)Nc2nccs2)cc1	-6%	-4%
21	O=C(NCC1CCCN1S(=O)(=O)c1cccs1)C(=O)Nc1ccc(F)cc1F (stereo not given)	-3%	-10%
22	COc1ccc(N(CC(=O)NCc2ccc(F)cc2)S(=O)(=O)c2c(C)n[nH]c2C)cc1	-12%	-2%&1%
23	CC(=O)OCC1=C(C(=O)O)N2C(=O)[C@@H](NC(=O)Cc3cccs3)[C@@H]2SC1	-4%[21.6 µM]	8%[21.4 µM]
24	Cc1ccc(-c2cc(N)n(-c3ccccc3)n2)cc1	15%	-2%
25	CCOC(=O)c1c(NC(=O)CNCCO)sc(C)c1C	-12%	-5%
26	CCOC(=O)c1csc(NC(=O)c2ccc3c(c2)OCCO3)n1	-18%	-3%
27	O=C(Nc1ccc(S(=O)(=O)N2CCCC2)cc1)c1cc(F)c(F)cc1Cl	2%	-11%
28	COc1cc(CN(C(=O)c2cccs2)C2CCS(=O)(=O)C2)cc(OC)c1OC (stereo not given)	-19%	-1%
29	CCOc1ccc(S(=O)(=O)N2CCOCC2)cc1NC(=O)C1=COCCO1	-4%	0%
30	COc1ccc(S(=O)(=O)c2c[nH]c(=S)[nH]c2=O)cc1Cl	-8%	?
31	CSc1ccc(S(=O)(=O)NCC(=O)OCC(=O)N2CC(C)CC(C)C2)cc1[N+](=O)[O-] (stereo not given)	-4%	?
32	Cc1ccc(S(=O)(=O)N(C)Cc2ccc(C(=O)N/N=C3\CC(=O)CC(C)(C)C3)cc2)cc1	-10%	2%
33	CCc1nc(N)c(C#N)c(-c2ccc(O)c(OC)c2)c1C	-16%	-3%
34	CCOC(=O)Cn1ncn(-c2ccc(OC(F)(F)F)cc2)c1=O	4%	-1%
35	COc1ccc(C(=O)Nc2ccccc2C(=O)NCCCn2ccnc2)cc1	-5%	-6%
36	O=C(NC1CCCCCC1)c1ccc(Cl)c(S(=O)(=O)N2CCOCC2)c1	-6%	-3%
37	Cn1c(SCc2ccccc2)nnc1-c1cnccn1	5%	-12%
38	CCN(CC)C(=O)Oc1ccc2ccccc2c1Br	3%	-14%
39	Cc1ccc(C(=O)Nc2cc3c(cc2Cl)OCCCO3)cc1	10%	-14%
40	COc1ccccc1C1C(C(C)=O)=C(O)C(=O)N1c1ccc(O)cc1 (stereo not given)	1%	-4%
41	COC(=O)/N=C/c1c(NCc2ccccc2)nc2c(C)cccn2c1=O	25%	-8%
42	O=c1[nH]c(CN2CCN(CCO)CC2)nc2ccccc12	2%	-1%
43	O=C1CCC(=O)N1CC(=O)N1CCCc2ccccc21	-11%	3%
44	O=C(NCc1ccc(Cl)cc1)C1CCC(CNc2c(N3CCCCC3)c(=O)c2=O)CC1 (stereo not given)	4%	-1%
45	CN(C(=O)CC1C(=O)NCCN1Cc1ccccc1C(F)(F)F)C1CCOCC1 (stereo not given)	-15%	-4%
46	Cn1c(=O)n(-c2ccc(Br)cc2F)c(=O)c2sc3ccccc3c21	/	1%
47	COc1ccccc1N1CCN(C2CCCN(S(=O)(=O)c3ccc(C)cc3)C2)CC1 (stereo not given)	8%	-3%
48	CCN(CC(=O)Nc1cc(Cl)ccc1C)C(=O)CSCc1c(C)noc1C	2%	-3%
49	COc1cc2c(=O)n(CCC(=O)NCC3CCCO3)c(=O)n(CC(=O)Nc3ccc(C)c(C)c3)c2cc1OC (stereo not given)	2%	-7%&1%
50	CC(C)Cc1cc(C(=O)NCc2cccnc2)no1	3%	-2%
51	O=C(CC1COc2ccccc2O1)NC1CCCCC1 (stereo not given)	5%	2%
52	COC(=O)c1sc(N/N=C/c2ccc(C(C)C)cc2)nc1C	2%	-6%
53	Cc1ccc(C)c(S(=O)(=O)N2CCN(C(=O)C3CC3C)CC2)c1 (stereo not given)	-11%	3%
54	CCc1ccc(S(=O)(=O)NCCc2csc(C)n2)s1	-3%	-1%
55	CCCOc1ccccc1C(=O)N1CCC(c2nc3ccccc3s2)CC1	/	-10%
56	Cc1nc2ccc(S(=O)(=O)NC(C(=O)NCc3ccccc3Cl)C(C)C)cc2s1 (stereo not given)	/	-4%
57	Cc1ccc(CNC(=O)CN2C(=O)NC(C)(c3ccc(Cl)cc3)C2=O)cc1 (stereo not given)	-12%	-4%
58	COc1ccc(NC(=O)C2CCCN(S(=O)(=O)c3c(C)n[nH]c3C)C2)cc1 (stereo not given)	3%	-9%
59	Cc1cc(S(=O)(=O)Nc2cc3c(cc2NCc2ccccc2)n(C)c(=O)n3C)ccc1F	/	-8%
60	Cc1nc(C(=O)NCc2ccccc2)sc1C1(C)CC(c2cccc([N+](=O)[O-])c2)=NO1 (stereo not given)	?	3%

# Other structures.
no.	Molecule	N370S GC mod	KAT2A inh
61	O=C(NCCC1=CCCCC1)NC1CCCCC1	14%	2%
62	COc1ccccc1CCNC(=O)C(=O)NCCC1CCCCN1S(=O)(=O)c1ccccc1 (stereo not given)	-4%	-5%
63	COc1ccc(/C=C2\SC(=O)N(CCNC(=O)Cc3coc4cc(C)ccc34)C2=O)cc1OC	27%	-13%
64	CCCc1nnc2n1N=C(c1ccc(C)cc1)CS2	2%	1%
65	Cc1cc(=O)oc(C)c1C(=O)N[C@@H]1CCCCNC1=O	2%	-6%
66	Cc1nc2ccccc2c(=O)n1N	4%	-8%
67	Cc1cccc(Oc2coc3cc(O)ccc3c2=O)c1	-4%	-14%
68	COc1ccc2[nH]cc(CCNC(=O)Nc3ccccc3C)c2c1	1%	-12%&-14%
69	CCc1ccc(N(CC(=O)N2CCOCC2)S(C)(=O)=O)cc1	0%	-6%
70	O=C(NCC(=O)N(c1cccc(F)c1)C(C(=O)NC1CCCC1)c1ccncc1)c1cccs1 (stereo not given)	-1%	-7%
71	COc1cccc(CN(C)C(=O)c2cc(COc3c(F)cccc3F)on2)c1	-3%	?
72	Cn1c(=O)c2c(nc(NCCc3ccccc3)n2Cc2ccccc2Br)n(C)c1=O	/	-9%
73	O=C(C[n+]1ccc(C(=O)N/N=C/c2ccc(Cl)cc2Cl)cc1)c1ccccc1	14%	-12%
74	COc1cc(CNC(=O)CSCc2nc3cccnc3n2C2CCCCC2)cc(OC)c1OC	/	4%
75	CCC(C)[C@H](N)c1nnc(SCc2cccc(F)c2)o1 (stereo not given in full)	-10%	-1%
76	CC(C)C(c1nnnn1Cc1ccccc1)N1CCC(C(N)=O)CC1 (stereo not given)	8%	-5%
77	COc1ccc(NC(=O)C2CC(=O)OC23CCOC(C)(C)C3)cc1 (stereo not given)	-1%	2%
78	Cc1ccc(NC(=O)C2CCN(S(=O)(=O)c3ccc(F)cc3)CC2)cc1	18%	1%
79	COc1ccc2c(c1)C(c1cccs1)=NNC(c1cccnc1)=N2	20%	-5%
80	Cc1cc(Cl)nc(-c2ccccc2)n1	-1%	13%
81	CCOc1ccc(Nc2oc(-c3ccc(COc4ccc(OC)cc4)o3)nc2C#N)cc1	/	-9%
82	O=C(CN(C(=O)CCC(=O)Nc1nccs1)c1ccc(F)cc1)NCc1ccc(F)cc1	-8%	1%
83	COc1ccc(N(CC(=O)NCc2ccc(F)cc2)C(=O)CCC(=O)Nc2nccs2)cc1	-8%	-10%
84	Cc1c(C(=O)N2CCOCC2)sc(NC(=O)c2ccc3c(c2)OCO3)c1C#N	-15%	-5%
85	O=C(CN1CCN(c2ccccn2)CC1)Nc1cc(C(F)(F)F)ccc1Cl	3%	-6%
86	COc1ccc(-n2cc(-c3ccccc3)c3c(N4CC(C)OC(C)C4)ncnc32)cc1 (stereo not given)	-5%	-8%
87	Cc1ccc(-n2cc(-c3ccccc3)nc2S(=O)(=O)CC(=O)Nc2ccc(F)cc2)cc1	/	-18%
88	COc1cc(NS(=O)(=O)c2csc(C(N)=O)c2)cc(OC)c1	-23%	?
89	CCCNC(=O)N1CCC(c2ccc3c(c2)OCO3)CC1	2%	-9%
90	CC(C)NC(=O)C12CC3CC(C1)CC(C(=O)NC(C)C)(C3)C2	-5%	-7%
91	N#C/C(=C(/O)COC(=O)c1ccc2c(c1)OCCO2)c1nc2ccccc2[nH]1	5%	0%
92	COc1ccc(S(=O)(=O)N2CCn3c2nc2ccccc23)cc1	0%	-9%
93	Cc1ccc(S(=O)(=O)N2CCCCC2)cc1C(=O)Nc1ccccn1	16%	0%
94	CCCCn1c(N)c(N(CCOC)C(=O)CSc2ccc([N+](=O)[O-])cc2)c(=O)[nH]c1=O	/	-7%
95	O=C(N/N=C/c1cccs1)/C(=C/c1ccccc1)NC(=O)c1ccccc1	18%	31%[activator]
96	CC(=O)NC(NC(=S)Nc1cccc(Br)c1)C(Cl)(Cl)Cl (stereo not given)	-3%	-1%

# Gathered by group, the entries above with an aryl thioether with sulfur outside any ring.
no.	Molecule	N370S GC mod	KAT2A inh
3	CSc1ccc(S(=O)(=O)NCc2ccc(C)cc2)cc1	-4%	-10%
11	Cc1ccc(CNC(=O)CSc2nc(C)cc(C)c2C#N)cc1	4%[2.35 µM]	-2%
18	Clc1ccc(SCCn2cncn2)cc1	-5%	-17%
31	CSc1ccc(S(=O)(=O)NCC(=O)OCC(=O)N2CC(C)CC(C)C2)cc1[N+](=O)[O-] (stereo not given)	-4%	?
37	Cn1c(SCc2ccccc2)nnc1-c1cnccn1	5%	-12%
75	CCC(C)[C@H](N)c1nnc(SCc2cccc(F)c2)o1 (stereo not given in full)	-10%	-1%
94	CCCCn1c(N)c(N(CCOC)C(=O)CSc2ccc([N+](=O)[O-])cc2)c(=O)[nH]c1=O	/	-7%

# Additional compounds:
no.	Molecule	N370S GC mod	KAT2A inh
97	Cc1ccc(S(=O)(=O)N(CCC(=O)NCc2ccccc2F)c2ccccc2)cc1	/	-8%
98	COc1ccc(N2C(=O)CC(N3CCN(Cc4ccc5c(c4)OCO5)CC3)C2=O)cc1 (stereo not given)	8%	-6%
99	Cc1nc2cccnc2n1C1CCN(S(=O)(=O)c2ccc(C(C)C)cc2)CC1	/	15%
100	Cc1ccc(C(=O)Nc2ncn[nH]2)cc1	4%	-11%
101	CSCC[C@H](NC(=O)OC(C)(C)C)C(=O)N/N=C/c1cccc2nccnc12	1%	-5%
102	COCCCn1c(C)nnc1SCC(=O)Nc1cccc(C)c1	8%	0%
103	COc1ccc(OC)c(C2CC(=O)c3c([nH]c(C(=O)OCC4CCCO4)c3C)C2)c1 (stereo not given)	?	-6%
104	O=C(N/C(=C\c1ccco1)C(=O)N1CCCCC1)c1ccc([N+](=O)[O-])cc1	/	-6%
105	Cc1ccc(-c2n[nH]c(=O)c3ccccc23)cc1S(=O)(=O)Nc1ccccc1	11%	-4%
106	Cc1oc2c(CN3CCCC3)c(O)ccc2c(=O)c1Oc1ccccc1Br	3%	?
107	O=C(NCc1ccc(F)cc1)c1cnc2sccn2c1=O	5%	-7%
108	CCn1nnc(C(=O)O)c1C(=O)O	0%	-18%
109	O=S(=O)(Nc1ccccc1N1CCCCC1)c1ccc(F)cc1	?	-5%
110	COCCNC(=O)C1(C(F)(F)F)C/C(=C\CCO)CCCO1 (stereo not given)	-6%	/
111	Cc1ccc(NC(=O)c2ccc(S(=O)(=O)N3CCCC3)cc2)nc1	-6%	-6%
112	COc1ccc(NC(=O)CN2CCN(c3nc(-c4cccc(OC)c4)cs3)CC2)cc1	-9%	-17%
113	O=C(CCCOc1ccc(Cl)cc1Cl)NCCc1ccccn1	-9%	1%
114	CC(C)(C)OC(=O)N1CCC(CNC(=O)c2ccccc2)CC1	1%	-1%
115	Cc1cnccc1NC(=O)c1cccs1	0%	-1%

# Screens (PubChem BioAssay)
